Compound activity as filed in PubChem BioAssay.
AID504770 – E. coli YBA685 growth inhibition, screen for V. cholerae RctB inhibitors; AID 504770; actives 0.27% (n = 130,000); z-score (concentration not given with the values); E. coli YBA685 rctB-dependent plasmid, OD600 growth, 3 h; hits give low values;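 active means z-score under -2 on both plates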;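 further: wells of about 30 µL received 100 nL stock; score is relative to mean and SD of the test wells; the first replicate is given; strong numbers were not always called active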
CapD inh – CapD enzyme inhibition | purified CapD enzyme, fluorescence intensity read-out; hits give low values; some hits fall short of the stated cut | z-score (test concentration not listed) | actives 0.23% (n = 140,000) | AID 492967;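 active means z-score under -4 in either of two replicates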;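 further: stock transfer was 100 nL into about 40 µL; score is relative to mean and spread of the plate; one replicate is shown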
Active calls of the source: *; . = not tested or not shown.

Compound,AID504770,CapD inh
Cc1ccc(C2=NN(C(=O)CSc3ccccn3)C(c3ccco3)C2)o1 (centres undefined),-0.2,.
CCn1c2ccccc2c2cc(NC(=O)c3ccccc3C)ccc21,-0.05,0.085
Cc1ccc(NC(=O)C(F)(F)Oc2ccc(Cl)cc2C)cc1Cl,.,0.18
O=C1/C(=C/c2ccco2)COC/C1=C\c1ccco1,.,-2
Cn1c(=O)c(C(=O)CS(=O)(=O)O)c2c3c(cccc31)C(=O)c1ccccc1-2,.,-1.1
COc1ccccc1C(=O)Nc1ccc2nc(C)sc2c1,0.8,-0.4
COc1ccccc1Nc1cc(C(=O)NCCN2CCOCC2)c2ccccc2n1,-0.3,-0.73
Cc1ccc(Cn2cc(CCCC(=O)N3CCCC3)c3ccccc32)cc1,0.35,0.48
COc1ccc(C2=CC(c3ccc(OC)cc3)NC(=S)N2)cc1 (centres undefined),.,0.035
CCN(CC)c1ccc(N=Cc2ccc3ccccc3n2)cc1,2.4,-0.48
CC1CCCCN1C(=O)Nc1cn(C)c(=O)c2ccccc12 (centres undefined),-0.95,51
Cc1cccc(CC(=O)N2CCN(c3ccccc3)CC2)c1,0,0.1
CCOc1cc(/C=C2\NC(=S)N(c3ccc(OC)cc3)C2=O)ccc1OCc1cccc(F)c1,.,-0.055
O=C(O)CCC(C(=O)O)N1C(=O)c2ccccc2C1=O (centres undefined),.,1.8
CCc1ccccc1Nc1nn2c(=O)c3ccc(C(=O)NCC4CCCO4)cc3nc2s1 (centres undefined),0.35,4
OCCNC(=S)Nc1ccc(Cl)cc1,-0.7,-0.11
Cc1cccn2cc(CNC(=O)CC3CCCC3)nc12,-1.2,0.49
NNc1ccc2nnc(C(F)(F)F)n2n1,-0.7,.
O=C(CCc1c(-c2ccc(F)cc2)[nH]c2ccc(F)cc12)N1CCN(C2CCS(=O)(=O)C2)CC1 (centres undefined),-0.4,.
CCc1ccc(Nc2cc(=O)oc3ccccc23)cc1,0.6,0.065
O=C1c2oc3ccccc3c(=O)c2C(c2ccc(O)cc2)N1Cc1ccccc1 (centres undefined),-0.15,0.14
O=C(NCCSc1ccc(Br)cc1)c1ccccc1Cl,.,-0.88
Cn1cc(SCC(=O)N2CCCc3ccccc32)c2ccccc21,-0.2,-0.64
COc1ccc(-c2cc(C(=O)Nc3cccc(C(C)=O)c3)c3ccccc3n2)cc1OC,.,0.06
COC(CSc1nc2cccc(F)c2c(=O)n1-c1ccc(C)c(C)c1)OC,0.8,0.39
CSc1nc2cc(C)nn2c(-c2ccc(C(C)(C)C)cc2)c1C#N,0.25,-0.6
O=C(NC1CCN(Cc2ccccc2)CC1)c1cc(-c2ccccc2)n[nH]1,-0.85,-1.8
CCn1nnc(NC(=O)C(C)(c2ccccc2)c2ccccc2)n1,-1,.
CC(C)(C)C(=O)CSc1nc2ccsc2c(=O)n1Cc1ccc(F)cc1,-1.1,0.035
O=C1N(c2ccc3c(c2)OCCO3)C(c2ccccc2)C1(F)F (centres undefined),0.2,0.49
CCC(=O)Nc1ccc(-c2nnc(C(F)(F)F)o2)cc1C,-0.95,0.65
NC(=O)Cn1c(CSc2nc3ccccc3n2CC(N)=O)nc2ccccc21,.,0.25
N#Cc1c(-c2cccs2)cc(-c2cccs2)nc1SCc1cccnc1,1.2,.
O=C(O)CCC(=O)Nc1ccc2c(c1)oc1ccccc12,0.1,.
O=C(Nc1cnn(Cc2ccc(F)cc2)c1)c1noc2c1CCCC2,1.8,-1.2
C=CCOc1nc(Sc2ccccc2)nc(N2CCOCC2)n1,.,-0.28
CN[C@@H]1[C@@H](O)[C@@H](O[C@@H]2[C@@H](O)[C@H](O[C@H]3O[C@H]([C@@H](C)NC)CC[C@H]3N)[C@@H](N)C[C@H]2N)OC[C@]1(C)O (tested in a mixture with another compound),.,-1.3
CCOC(=O)c1ccc(NC(=O)CNC(=O)c2ccc(Cl)cc2)cc1,-0.5,1.4
CC1=C(C)C/S(=N\S(=O)(=O)c2ccc(Cl)cc2)N(S(=O)(=O)c2ccc(Cl)cc2)C1 (centres undefined),-0.65,.
CNc1nn(S(=O)(=O)c2cccc(C(F)(F)F)c2)cc1[N+](=O)[O-],.,-1.2
CC(C)(C)OC(=O)N1CCCN(S(=O)(=O)c2cccc(C(F)(F)F)c2)CC1,-0.15,-0.62
CCc1ccc(OCCSc2nc(-c3ccco3)nc3cc(=O)[nH]n23)cc1,1.1,1.2
COC(=O)c1cc(OC(=O)c2cc(OC)cc(OC)c2)cc(C(=O)OC)c1,1.6,.
CC1CCCCC1NC(=O)c1cccc(NC2=NC3CS(=O)(=O)CC3S2)c1 (centres undefined),0.7,0.7
O=C(O)CCC(=O)NC1CCCCCCC1,0,0.26
CCOC(=O)c1cnn(-c2ccccc2)c1NC(=O)CSc1nc2ccc(OCC)cc2s1,.,0.34
CN(C)CC(=O)C12CC3CC(CC(C3)C1)C2,0,0.6
CC1=CCC(C(=O)O)C(C(=O)O)C1 (centres undefined),0.05,-0.01
Cc1ccc(OCc2cc(C(N)=O)oc2C)cc1,-0.5,0.14
Cc1onc(-c2c(Cl)cccc2Cl)c1N,-0.85,-0.075
O=C(CN1C(=O)CSC1=O)NCc1ccccc1,-1.1,.
O=C(C1CCN(S(=O)(=O)c2cnc[nH]2)CC1)N1CCn2c1nc1ccccc12,1.2,2.3
O=C1/C(=C/c2ccccc2)Cc2ccccc21,-0.1,-0.55
Cc1cc(C(=O)NCc2csc(-c3cccs3)n2)no1,0.65,28
Cc1cc(Cl)ccc1OCC(=O)N/N=C/c1ccc(C(C)(C)C)cc1,.,0.01
N=C1/C(=C\c2cn(CCOc3ccccc3Cl)c3ccccc23)C(=O)N=C2SC=NN12,0.7,0.19
O=C(N/N=C/c1cc(Br)cc([N+](=O)[O-])c1O)c1csc(CS(=O)(=O)Cc2ccco2)n1,.,-1.7
CCOC(=O)c1ccc(N2C(=O)CC3(CCCC3)C2=O)cc1,0.65,0.1
COc1ccc(CC(=O)N2CC(C)OC(C)C2)cc1 (centres undefined),-0.55,-0.1
c1ccc(N2CCN(c3cnc4ccccc4n3)CC2)cc1,-0.45,-0.46

Pulled one by one from above (2):
Compound,AID504770,CapD inh
O=C(O)CCC(=O)NC1CCCCCCC1,0,0.26
COC(=O)c1cc(OC(=O)c2cc(OC)cc(OC)c2)cc(C(=O)OC)c1,1.6,.

The list continues.
Compound,AID504770,CapD inh
COC(=O)COc1cc2oc(=O)cc(C)c2cc1Cl,-0.8,9.3
CCCn1c(C)cc(/C=C(\C#N)C(=O)Oc2c(C)ccc(C)c2C)c1C,-0.95,.
CCSc1nnc(NC(=O)/C=C/c2ccc3c(c2)OCCO3)s1,-0.1,.
O=S(=O)(NC1c2cccc3cccc(c23)C1N1CCN(C(=S)Nc2ccccc2)CC1)c1ccccc1 (centres undefined),.,-0.67
CCOC(=O)N1CCN(C(=O)c2c[nH]c3ccc(S(=O)(=O)N(C)c4ccc(C)c(C)c4)cc3c2=O)CC1,.,0.7
N#CC1=C(N)C(C#N)(C#N)C(c2cccs2)C2CCCC=C12 (centres undefined),-0.8,-0.11
COC(=O)C1=NNC(C(=O)c2ccco2)C1c1ccc(OC)cc1 (centres undefined),0.7,0.5
O=C(CN1C(=O)C2CC=CCC2C1=O)NC1CCCCC1 (centres undefined),-0.9,-0.22
COc1ccc(C(=O)N[C@H](C(=O)N2CCN(S(=O)(=O)c3ccc(Cl)cc3)CC2)C(C)C)cc1,0.05,.
CCS(=O)(=O)c1ccc2c(c1)N1CCS(=O)(=O)N=C1O2,0.9,.
O=C(O)c1ccc(S(=O)(=O)NCc2ccco2)cc1,-0.95,-0.07
Cc1cccc(NC(=O)C2=CC(=O)C3C=CC=CC3O2)c1C (centres undefined),1.4,.
C=CCOC(=O)COc1ccc(Oc2ccccc2)cc1,-0.25,.
Nn1c(SCC(=O)NC2CCCCC2)nnc1C(F)(F)F,0.15,0.17
Cc1ccc(C)c(OCC(=O)OCn2nnc3ccccc3c2=O)c1,-0.15,.
CCOc1cccc(C(=O)NNC(=O)OCCc2ccccc2Br)c1,.,-0.59
Cc1nn(-c2ccccc2)c(C)c1/C=N/n1cnnc1,-2.3,-0.39
CCC(=O)c1ccc(N2CCN(C(=O)c3ccco3)CC2)c(F)c1,-1.1,0.095
N#Cc1ccc(Cn2c3ccccc3c3nc4cc(F)ccc4nc32)cc1,.,-0.3
Cc1nn(-c2ccccc2)c2ncc(C(=O)N3CCN(C)CC3)c(Cl)c12,-0.45,.

Copied from the list.
CCOc1cccc(C(=O)NNC(=O)OCCc2ccccc2Br)c1 in CapD inh has -0.59
CCSc1nnc(NC(=O)/C=C/c2ccc3c(c2)OCCO3)s1 in AID504770 has -0.1
COC(=O)COc1cc2oc(=O)cc(C)c2cc1Cl in AID504770 has -0.8
Cc1nn(-c2ccccc2)c2ncc(C(=O)N3CCN(C)CC3)c(Cl)c12 in AID504770 has -0.45

Part of the list above, reformatted.
Fields: AID504770, CapD inh
> O=C(CN1C(=O)C2CC=CCC2C1=O)NC1CCCCC1 (centres undefined)
→ -0.9, -0.22
> COc1ccc(C(=O)N[C@H](C(=O)N2CCN(S(=O)(=O)c3ccc(Cl)cc3)CC2)C(C)C)cc1
→ 0.05, .
> N#CC1=C(N)C(C#N)(C#N)C(c2cccs2)C2CCCC=C12 (centres undefined)
→ -0.8, -0.11
> Cc1cccc(NC(=O)C2=CC(=O)C3C=CC=CC3O2)c1C (centres undefined)
→ 1.4, .
> Cc1nn(-c2ccccc2)c2ncc(C(=O)N3CCN(C)CC3)c(Cl)c12
→ -0.45, .

The list goes on:
Compound,AID504770,CapD inh
Cc1ccc(CN)n1C,-1.5,.
CCOC(=O)C1=C(C)NC(SC)=NC1c1ccccc1 (centres undefined),-0.65,0.23
O=C(CSc1cn(Cc2ccccc2Cl)c2ccccc12)N1CCCC1,-0.55,0.86
COc1ccc(S(=O)(=O)NNC(=O)C2Cc3c(ccc4ccccc34)O2)cc1 (centres undefined),.,5.3
O=C(NC1CCC(CC2CCC(NC(=O)c3cccnc3)CC2)CC1)c1cccnc1 (centres undefined),0,1.9
Cc1cc(F)ccc1NC(=O)Cc1ccc(S(=O)(=O)N2CCCC2)s1,0.15,.
Cc1c(CN(C)C)c2c(n1C)C(=O)c1ccc(Br)cc1-2,-0.15,-0.91
O=C(NC(Cc1ccccc1)C(=O)OCc1cnc(-c2ccccc2)o1)c1ccccc1 (centres undefined),0.55,1.3
O=C(CCn1[nH]c(=O)c2ccccc2c1=O)NCCO,-0.15,.
C=CCOC(=O)C1=C(C)NC(SCC(=O)Nc2ccccc2CC)=C(C#N)C1c1ccco1 (centres undefined),.,9.1
COC(=O)c1sccc1O,0.3,-0.28
C=CCC1(C#N)C(=S)NC(c2ccccc2)=C(C(=O)OCC)C1c1cccnc1 (centres undefined),-0.65,-1.6
N=C1CCCN1c1ccccc1O,-0.3,0.32
CCC(=O)Nc1cccc(C(=O)N/N=C/c2c(O)cc(OC)cc2OC)c1,.,-0.53
Cc1ccccc1NS(=O)(=O)c1ccc2[nH]cc(C(=O)N3CCc4ccccc43)c(=O)c2c1,-0.85,0.015
CC1CC(C)CN(S(=O)(=O)c2ccc(C(=O)Nc3nc4ccc(S(N)(=O)=O)cc4s3)cc2)C1 (centres undefined),.,0.67
Cc1nc(N2CCN(C)CC2)c2c(C)c(C(=O)Nc3cccc(C(F)(F)F)c3)sc2n1,.,1.7
Nc1nnc(Sc2nc3c(Cl)cc(Cl)cc3s2)s1,.,-0.17
c1cncc(CNc2c3c(nc4ccccc24)CCC3)c1,-0.95,2.9
Cc1c(C)n(C(=O)CSc2ncccn2)c2ccccc12,-0.25,0.64
Cc1nnc2sc(-c3cc4ccccc4o3)nn12,0,0.62
Cc1c(N=Cc2c(F)cccc2Cl)c(=O)n(-c2ccccc2)n1C,.,-0.13
C=CCN(CC=C)C(=S)Nc1ccc2c(C)cc(=O)oc2c1,1.7,44
CNc1nc(OCC(F)(F)F)nc(N2CCN(C34CC5CC(CC(C5)C3)C4)CC2)n1,.,1.1
CCCNS(=O)(=O)c1ccc(-c2cc(C(F)(F)F)no2)s1,1.2,0.23
O=S(=O)(c1ccc(Cl)s1)N1CCN(C(c2ccccc2)c2ccccc2)CC1,-0.7,-0.38
COc1ccc(/C=C2\C=C(c3ccccc3)N(c3ccc(Cl)c(C(=O)O)c3)C2=O)cc1,.,-1
BrCCOC12CC3CC(CC(C3)C1)C2,-0.2,0.3
OC(CNCc1ccc2c(c1)OCO2)COc1ccc(-c2csnn2)cc1 (centres undefined),1.8,-2
COc1ccc(C(=O)NC(c2ccc(OC)c(OC)c2)c2cc(Cl)c3cccnc3c2O)cc1 (centres undefined),.,-0.27
CC1(C)Cc2c(sc3nc[nH]c(=O)c23)CO1,.,-0.26
CC1CCN(c2c(N)cccc2Cl)CC1,-0.7,0.21
CCn1c2ccccc2c2cc(/C=N/n3cnnc3)ccc21,-1.1,79
CCSc1sc(CC)cc1C1C(C(=O)Nc2cccc(C)n2)=C(C)NC2=C1C(=O)CC(C)(C)C2 (centres undefined),.,5.4
O=c1c[n+]([O-])c2ccccc2n1OCc1ccccc1,.,0.79
COc1ccc(/C=C/C(=O)Nc2noc3ccccc23)cc1OC,1.3,8
CC1CC(C)CN(C(=O)c2cc3cccnc3n(Cc3ccccc3)c2=O)C1 (centres undefined),1.6,.
CC(=O)Nc1ccc(S(=O)(=O)NCc2cc(C)n(-c3ccc(F)cc3)c2C)cc1,0.8,-0.11
C=CCS(=O)(=O)c1nc2ccccc2s1,-0.5,.
Cc1cccc(-n2ncc3c(Nc4ccc(Br)cc4)ncnc32)c1,.,0.3
